# Compound activity from PubChem.
# RecA splice inh: inhibitors of M. tuberculosis RecA intein splicing. inhibition, %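 (about 9 µM by stock and volumes)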. AID 2221. cell-free RecA intein splicing, fluorescence. actives 0.75% (n = 290,000); in the data active = inhibition above about 30%; inconclusive = no clear call, values can overlap the other calls;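 note: 0% = vehicle wells and 100% = reference inhibitor control wells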
# Target sequence (P9WHJ3 whole entry, looked up, canonical isoform): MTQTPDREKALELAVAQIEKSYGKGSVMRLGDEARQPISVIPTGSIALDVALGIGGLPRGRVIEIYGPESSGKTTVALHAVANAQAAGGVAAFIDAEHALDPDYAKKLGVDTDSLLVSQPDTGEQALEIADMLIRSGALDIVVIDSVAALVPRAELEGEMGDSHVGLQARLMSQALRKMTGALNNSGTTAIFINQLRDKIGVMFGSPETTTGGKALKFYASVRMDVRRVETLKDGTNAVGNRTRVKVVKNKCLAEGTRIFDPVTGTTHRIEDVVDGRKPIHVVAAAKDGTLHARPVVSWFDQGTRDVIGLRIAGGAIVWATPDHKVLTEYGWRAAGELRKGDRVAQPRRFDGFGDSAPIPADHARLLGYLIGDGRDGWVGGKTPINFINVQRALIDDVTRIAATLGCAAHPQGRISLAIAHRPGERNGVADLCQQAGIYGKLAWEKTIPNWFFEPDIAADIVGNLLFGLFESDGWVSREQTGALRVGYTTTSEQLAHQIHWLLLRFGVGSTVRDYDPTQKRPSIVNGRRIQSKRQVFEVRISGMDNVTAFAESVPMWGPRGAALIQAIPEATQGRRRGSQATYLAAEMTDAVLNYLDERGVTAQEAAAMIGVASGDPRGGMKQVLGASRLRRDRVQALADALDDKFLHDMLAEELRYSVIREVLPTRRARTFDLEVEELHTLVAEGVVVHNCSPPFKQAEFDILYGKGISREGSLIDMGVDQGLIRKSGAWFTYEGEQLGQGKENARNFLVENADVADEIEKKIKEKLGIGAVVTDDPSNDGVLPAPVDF
# Arbovirus inh: blocks arbovirus infection. inhibition, % at 10 µM. arbovirus infection cell-based antiviral screen. AID 1251. actives 0.37% (n = 200,000);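 active = inhibition from about 30%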;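 note: bluetongue infection of BSR cells; cell survival read as ATP light after 72 h; 0% = infected wells without compound and 100% = uninfected wells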
# YopH PTP inh: YopH (Yersinia) phosphatase inhibition | fluorescence Ex485/Em525 | inhibition, %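 (about 10 µM by stock and volumes)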 | actives 0.16% (n = 140,000);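 active = inhibition of 50% or more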;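 note: controls were vehicle for no effect and minimum signal wells for full effect; inactives centre near -20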
# Mtb bLac sens: beta-lactam sensitization of Mtb H37Rv; M. tuberculosis H37Rv growth with meropenem, percent inhibition; hits of this screen are not shown here; actives 0.27% (n = 330,000); inhibition, % at 25 µM;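 active = about 74% or more and at least 40 points above the plate without the antibiotic, then above 30% in a dose series; inconclusive = first-round hits that could not be retested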;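 note: growth measured after seven days incubation then overnight dye step; 0% = bacteria only wells and 100% = bacteria with antibiotic; twin plates without the antibiotic show which effects depend on it; some results filed as inactive read as strong as hits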
# Mtb H37Rv: M. tuberculosis H37Rv growth inhibitors, H37Rv strain (AID 1626). actives 0.95% (n = 220,000). M. tuberculosis H37Rv growth inhibition; higher % means a stronger effect. inhibition, % at 10 µM; hits with a dose series show IC50 in µM;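 active = confirmed in a dose series; inconclusive = inhibition above 80% but not taken into the dose series; inactive = below 80% or under 30% at every dose of the series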;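 note: bacteria incubated seven days before Alamar blue readout; 0% = bacteria only wells and 100% = bacteria with antibiotic wells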
# Arbovirus inh repeat: recorded beside Arbovirus inh, whose call it bears; inhibition, %; measured here: 10K subset replicate screen; many hits read low in the repeat;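 first of two repeat runs on a subset; 0% = infected and 100% = uninfected wells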
# * hit, by the source's call; ? = inconclusive; / = not tested or not shown. These rows are one share of the data. The share of hits here may be higher or lower than overall.
SMILES,RecA splice inh,Arbovirus inh,YopH PTP inh,Mtb bLac sens,Mtb H37Rv,others
NNC(=O)CSCc1ccc(Cl)cc1Cl,0.6,-3,/,1,12%,
NS(=O)(=O)c1cccc(NC(=O)CSc2nc3ccccc3c(=O)n2CCCN2CCOCC2)c1,1.4,6,-27,-10,0%,
CCCCOP(=O)(c1ccc(N(C)C)cc1)C(O)c1ccc(OC)cc1 (centres undefined),1.2,/,/,-2,/,
CCN(CC)C(=O)N1c2ccccc2CC(N(CC)CC)c2ccccc21 (centres undefined),-2.9,-8,-51,-6,-13%,
Cc1cc(Oc2ccccc2)nc(-c2ccccc2O)n1,/,11,-43,19,17%,
COc1ccccc1N(CC(=O)NCc1ccco1)S(=O)(=O)c1ccc(C)cc1,4.7,/,/,-1,/,
CCOC(=O)C1CCN(C(=O)Nc2ccc(OCc3ccccc3)cc2)CC1,0.2,/,/,91,16%,
CC1(C)CC(=O)C/C(=N/NC(=O)C2CCN(S(=O)(=O)c3cccs3)CC2)C1,-2.0,-2,-33,-5,2%,
CC(=O)c1cccc(N2C(=O)Nc3ccccc3N2O)c1,0.3,6,/,-1,-10%,
COc1ccc(/C=C/C(=O)c2ccc[nH]2)cc1OC,-0.7,-5,-16,3,-1%,
O=S(=O)(NC1CCCC1)c1ccc(Br)s1,2.9,-2,-7,6,-5%,
C=Cn1ccnc1P(O)(=S)c1nc(C)c(CCOC(C)=O)s1 (centres undefined),-0.3,6,/,4,5%,
O=C(COc1cccc(-n2cnnn2)c1)NCCC1=CCCCC1,1.3,-1,-21,-10,1%,
CC1CCN(CCOCCOc2ccccc2Br)CC1,0.2,-1,/,-9,3%,
COc1ccc(Cc2c(O)[nH]c(=S)[nH]c2=O)cc1,-0.6,/,/,0,/,
CCc1ccccc1NC(=O)NCc1ccc2c(c1)OCO2,1.4,/,/,-2,/,
COc1ccc(N2CCN(C(=O)C3(C)CC3(Cl)Cl)CC2)cc1 (centres undefined),-6.7,-9,-21,5,3%,
O=c1nc2n(c3ncccc13)CCCCC2,-2.7,13,/,-12,8%,
CC(CC#CCN1CCOCC1)OCCC#N (centres undefined),-7.4,9,-18,0,-3%,
C/C=C(\C)CN1CCN(c2ccccc2F)CC1,-7.8,9,-29,-9,4%,
CCOC(=O)COc1cc(N2C(=O)CSCC2=O)c(Cl)cc1Cl,/,6,6,6,-4%,
N=C1SCC(=O)N1c1ccc(Cl)cc1,0.2,/,/,14,/,
COc1ccc(N(CC(=O)Nc2cccc(C(C)=O)c2)S(=O)(=O)c2ccc(NC(C)=O)cc2)cc1,0.4,/,/,49,/,
COc1ccc(CCc2nnc(CCC(=O)N(C)Cc3ccnc4ccccc34)o2)cc1,-2.2,7,/,-2,-4%,
CCOc1ccc(NC(=O)CSc2ccc3nnc(-c4cccnc4)n3n2)cc1,-0.4,/,/,-4,/,

# Some of these compounds in order of length of the SMILES, ascending:
SMILES,RecA splice inh,Arbovirus inh,YopH PTP inh,Mtb bLac sens,Mtb H37Rv,others
C/C=C(\C)CN1CCN(c2ccccc2F)CC1,-7.8,9,-29,-9,4%,
COc1ccccc1N(CC(=O)NCc1ccco1)S(=O)(=O)c1ccc(C)cc1,4.7,/,/,-1,/,
NS(=O)(=O)c1cccc(NC(=O)CSc2nc3ccccc3c(=O)n2CCCN2CCOCC2)c1,1.4,6,-27,-10,0%,

# Next section
SMILES,RecA splice inh,Arbovirus inh,YopH PTP inh,Mtb bLac sens,Mtb H37Rv,others
COc1ccc(CN2CCN(C(=O)C3CCC(CNS(=O)(=O)c4ccc(C)cc4)CC3)CC2)c(OC)c1OC (centres undefined),2.7,-5,/,-4,-3%,
CCOc1ccccc1-n1c(SCC(=O)Nc2nccs2)nnc1-c1ccoc1C,6.0,-7,-12,-7,9%,
Cc1cc(C(=O)COC(=O)C2=NNC(=O)CC2)c(C)n1-c1ccccc1,0.9,-1,-9,19,-13%,
Cc1nc2sc(C(c3ccco3)N3CCC(Cc4ccccc4)CC3)c(O)n2n1 (centres undefined),6.0,10,-18,1,-4%,Arbovirus inh repeat=3
S=c1[nH]c2ccccc2n1Cc1ccccc1,2.1,/,/,4,/,
O=C1NCCC/C1=N/Nc1ccc(F)cc1,-0.7,6,/,-1,70%,
CCN1C(=O)[C@H]2[C@@H](c3ccc(-c4ccc(F)cc4)c(OC)c3)N3CCC[C@@]3(C(=O)OC)[C@H]2C1=O,3.5,/,/,-1,/,
O=C(CSCCO)Nc1nccs1,-0.3,2,-31,16,6%,
CCN(Cc1nc(-c2cccc(Cl)c2)no1)CC1CCCO1 (centres undefined),-4.1,-2,/,-2,1%,
CCOC(=O)C1=C(COC(=O)COc2ccccc2OCC)NC(=O)NC1C (centres undefined),1.4,/,/,2,/,
CCN1CCc2nc3ccccc3c(C(=O)Nc3ccc(NC(C)=O)cc3)c2C1,-2.5,/,/,6,7%,
CC1CCc2c(C(=O)NCCN3CCOCC3)csc2C1 (centres undefined),-2.2,5,-54,0,3%,
CCC(C)c1ccc(NC(=S)NCc2cccnc2)cc1 (centres undefined),1.8,0,-7,-3,/,
CC(=O)Nc1ccc(NC(=O)CNC(=O)c2cccc(C)c2)cc1,-2.7,/,/,6,/,
O=S(=O)(NCc1ccc2c(c1)OCO2)c1ccc(Cl)s1,-3.5,/,/,5,/,
CCC(C)n1c(O)c(C=NCCc2ccccc2)c(=O)[nH]c1=S (centres undefined),4.7,/,/,11,1%,
COC(=O)c1cc(S(=O)(=O)N2CCN(C3CCCCC3)CC2)c[nH]1,1.5,/,/,0,/,
CCOc1ccc(CN2CCCC(CNC(=O)c3ccc(F)cc3)C2)cc1CO (centres undefined),3.9,-1,/,1,-1%,
FC(F)(F)c1cc(-c2ccco2)nc(NCc2cccs2)n1,8.7,7,-38,-4,-18%,
CCN(CCCNC(=O)C1CCN(S(=O)(=O)N2CCOCC2)CC1)c1cccc(C)c1,-4.1,-1,-26,-3,-4%,
Cn1c(C(=O)NCc2cccnc2)cc2sccc21,0.6,-5,0,0,0%,
CC1CN(C(=O)CCn2c(=O)oc3ccccc32)CC(C)O1 (centres undefined),2.4,-4,-26,-2,0%,
COc1ccc2cc(C(=O)/C=C/c3cc(OC)c(OC)c(OC)c3)ccc2c1,4.1,/,/,96,/,
CCCCN(CCCNC(=O)C1CCN(S(=O)(=O)N2CCOCC2)CC1)c1ccccc1,-0.6,4,-31,10,-1%,
COc1cc(-c2ccccc2)nc(N)n1,/,-7,-7,-3,11%,

# Further records follow:
SMILES,RecA splice inh,Arbovirus inh,YopH PTP inh,Mtb bLac sens,Mtb H37Rv,others
CCOc1ccc2nc(NC(=O)CN3CCOCC3)sc2c1,1.4,9,/,0,3%,
CC(OC(=O)Cn1cnc2c1c(=O)n(C)c(=O)n2C)C(=O)NC(C)c1ccc(Cl)cc1Cl (centres undefined),-0.7,/,/,-5,/,
NS(=O)(=O)c1ccc(NC(=O)CSc2nc3c(c(=O)[nH]2)CCCC3)cc1,-1.0,/,/,0,/,
CN(C)CCNC(=O)c1cc2c(s1)-c1ccccc1OC2,-37,-38,-29,3,-2%,
CC(C)CNC(=S)NC1CC2CCC(C1)N2Cc1ccccc1 (centres undefined),-0.1,1,-4,13,-4%,
CCOc1ccc(NC(=S)N2CCn3c(nc4ccccc43)C2)cc1,-2.6,1,/,3,7%,
COc1ccc(OCC#CCNC(C)(C)C)cc1,0.3,3,-22,-3,2%,
CCOC(=O)c1cc(C(=O)OCC)cc(-n2cc(O)c(C(=O)OCC)n2)c1,0.1,5,-163,/,-3%,
CCC(=O)Nc1ccc(C(=O)NNC(=O)COc2cccc(C)c2)cc1,-0.9,3,-28,8,7%,
Cc1cc(NC(=O)CN2CCN(Cc3ccccc3)CC2)nc2c1c(=O)oc1ccccc12,-0.3,-4,/,2,/,
CC(c1ccco1)N(C(=O)Nc1ccccc1)C1CCCCC1 (centres undefined),5.2,-3,12,-1,-2%,
CCc1nnc(NS(=O)(=O)c2ccc(NC(=O)COc3ccc(Cl)c(C)c3)cc2)s1,2.0,18,/,4,4%,
COc1ccc(-c2cn3ccc(C)cc3n2)cc1,2.9,/,/,2,3%,
COc1cc(OC)c(OC)cc1CN1CCN(Cc2ccc(C(F)(F)F)cc2)CC1,0.5,/,/,3,/,
CCc1ccc(C(=O)C(C)OC(=O)CNS(=O)(=O)c2ccc(C)cc2)cc1 (centres undefined),7.5,/,/,2,/,
CN(C)c1ccc(C(C(=O)NCC2CCCO2)N(Cc2ccco2)C(=O)c2snc(C(N)=O)c2N)cc1 (centres undefined),-0.3,/,/,5,/,
COCCCNC(=O)c1ccccc1Oc1ccccc1,2.9,-4,-1,25,-8%,Arbovirus inh repeat=-3
Cc1cccc(NC(=O)CCN2C(=O)c3ccccc3C2=O)n1,-0.7,3,-8,-7,-7%,
O=C(NC1(C(F)(F)F)N=C2SCCN2C1=O)c1ccco1 (centres undefined),-2.6,-8,-14,-1,10%,
COc1ccc(Cl)cc1NC(=O)CNC(c1ccccc1)c1ccccc1,-1.7,/,/,7,/,
CC(=O)N1C(=O)/C(=C2\SC(=S)N(NS(=O)(=O)c3ccc(C)cc3)C2=O)c2ccccc21,/,0,/,/,-2%,
COCCOc1cc(NC(=O)c2cccc(OC)c2)c(Cl)cc1Cl,0.4,0,/,-1,/,
Cn1ncc(Cl)c1C(=O)N1CCOCC1,-1.5,9,/,-2,4%,
CCS(=O)(=O)N1CCCC(c2nc(-c3cccc(OC)c3)no2)C1 (centres undefined),-0.2,-1,9,?,-14%,
O=C(COC(=O)c1ccc(O)cc1)NC1CCCC1,0.2,/,/,-3,/,

# Going on with the list:
SMILES,RecA splice inh,Arbovirus inh,YopH PTP inh,Mtb bLac sens,Mtb H37Rv,others
O=C(COC(=O)CNC(=O)c1ccccc1F)NCCNC(=O)COC(=O)CNC(=O)c1ccccc1F,2.9,/,/,-10,/,
O=C(CSc1n[nH]c(-c2ccccc2)n1)NC(=O)NCc1ccco1,0.1,2,-28,4,4%,
O=C(CSc1ccc(F)cc1)NCCSc1ccccc1,4.6,-6,/,-7,/,
CC(C)(C)C(=O)c1cn(CC(=O)O)c2ccccc12,-1.3,6,/,-8,-8%,
CC1Cc2ccccc2N1C(=O)CNCCCN(C)C (centres undefined),1.7,6,-13,-15,/,
CCOc1cc(C(=O)Nc2ccccc2N2CCN(S(C)(=O)=O)CC2)cc(OCC)c1OCC,-0.9,-5,-21,70,12%,
O=C(CSc1ccc2c(c1)OCCO2)Nc1ccc(N2CCOCC2)cc1,-3.8,1,/,-3,10%,
Cc1ccc(CNC(=O)CNC(=S)N(Cc2ccccc2)Cc2cccnc2)cc1,0.7,12,/,6,-1%,
Cc1ccc(NC(=O)CN(C(=O)N2CCN(C)CC2)S(=O)(=O)c2ccc(C)cc2)cc1,-0.8,/,/,-13,/,
Cc1ccc(OCC(O)CN2CC3(C)CC2CC(C)(C)C3)cc1 (centres undefined),-0.5,3,-8,-5,3%,
Cn1nc(C(F)(F)F)cc1-c1ccc(/C=C(\C#N)C(=O)c2cccc(C(F)(F)F)c2)s1,-14,/,/,2,-5%,
CC(C)C[C@H](N)c1cn([C@@H](CCCCN)C(=O)N2CCNCC2)nn1,0.0,6,/,-6,-16%,
COCCOC(=O)c1[nH]c2c(c1C)C(=O)CC(c1cccs1)C2 (centres undefined),-0.6,-12,/,/,1%,
CCN1CCC2(CC1)NC(CO)(CO)CO2,-3.6,6,-6,-14,1%,
Cc1cccnc1NC(=O)C1CCN(S(=O)(=O)c2ccc3ccccc3c2)CC1,-1.1,/,/,-6,/,
Cc1oc(-c2cccc(F)c2)nc1CN1CCCCC1CCc1ccccn1 (centres undefined),-3.7,3,/,-1,4%,
CC(C)OCCCN1CC(=O)N2C(c3ccccc3)c3[nH]c4ccccc4c3C[C@H]2C1=O (some centres undefined),0.7,/,/,3,/,
CC(C)NC(=O)CC(=O)N/N=C/c1c(F)cccc1Cl,-0.9,-2,/,35,-4%,
COc1cccc(/C=C/C(=O)OCC(=O)c2cc(C)n(CC3CCCO3)c2C)c1OC (centres undefined),0.3,5,-22,6,-7%,
Cc1c(/C=N/NC(=O)CNc2ccccc2)c2ccccn2c1C(=O)c1ccncc1,0.9,11,-13,47,7%,
c1cc(-c2nnc(-c3ccncc3)o2)ccn1,1.2,8,-19,0,-2%,
COc1ccc(N2CCN(CC(=O)Nc3sccc3C#N)CC2)cc1,-1.0,17,-13,-2,3%,
CCOc1ccc(-c2noc(CCC(=O)NCC3CCCO3)n2)cc1OC (centres undefined),-2.0,/,/,0,/,

# Of the compounds above, three have a cyano group.
SMILES,RecA splice inh,Arbovirus inh,YopH PTP inh,Mtb bLac sens,Mtb H37Rv,others
CC(CC#CCN1CCOCC1)OCCC#N (centres undefined),-7.4,9,-18,0,-3%,
Cn1nc(C(F)(F)F)cc1-c1ccc(/C=C(\C#N)C(=O)c2cccc(C(F)(F)F)c2)s1,-14,/,/,2,-5%,
COc1ccc(N2CCN(CC(=O)Nc3sccc3C#N)CC2)cc1,-1.0,17,-13,-2,3%,
